Screening results: PubChem BioAssay, several laboratories
Beta2AR agonist – activates human beta-2 adrenergic receptor causing internalization; P07550; Am2.2-beta2AR cells, FAP receptor internalization, flow cytometry; reference of the scale not given here; response, % (test concentration not listed); actives 0.43% (n = 340,000);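 active = response above a set limit, near 3 SD of response in nonfluorescent compounds, cut at about 42% in these data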;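 also: stock transfer was 100 nL into about 11 µL; a reference agonist was the positive control; negative values mostly stem from fluorescent compounds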
Ecoli growth – inhibitors of Escherichia coli growth. OD600, 23 h; stronger effect = lower value. OD600 absorbance (no concentration beside the values). AID 1053175. actives 0.21% (n = 330,000);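 active = OD600 absorbance below the run mean of sample wells minus 3.6 SD, in any replicate, cut at about 0.56 in these data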;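 also: stock transfer was 300 nL into about 60 µL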
LANA-H2B inh – blocks KSHV LANA binding to histone H2A/H2B. Q9QR71. cell-free LANA-H2A/H2B peptide, fluorescence polarization. inhibition, % (concentration not given with the values). actives 0.6% (n = 320,000). AID 2629; in the data active = inhibition mostly above about 10%, no sharp cut-off; inactive = mostly below about 6.7%;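 also: stock transfer was 7.5 nL into about 10 µL; 0% = median of vehicle wells and 100% = median of positive control wells; one replicate is shown; the record names a cut of 25% in any replicate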
Target sequence (Q9QR71 whole entry, looked up): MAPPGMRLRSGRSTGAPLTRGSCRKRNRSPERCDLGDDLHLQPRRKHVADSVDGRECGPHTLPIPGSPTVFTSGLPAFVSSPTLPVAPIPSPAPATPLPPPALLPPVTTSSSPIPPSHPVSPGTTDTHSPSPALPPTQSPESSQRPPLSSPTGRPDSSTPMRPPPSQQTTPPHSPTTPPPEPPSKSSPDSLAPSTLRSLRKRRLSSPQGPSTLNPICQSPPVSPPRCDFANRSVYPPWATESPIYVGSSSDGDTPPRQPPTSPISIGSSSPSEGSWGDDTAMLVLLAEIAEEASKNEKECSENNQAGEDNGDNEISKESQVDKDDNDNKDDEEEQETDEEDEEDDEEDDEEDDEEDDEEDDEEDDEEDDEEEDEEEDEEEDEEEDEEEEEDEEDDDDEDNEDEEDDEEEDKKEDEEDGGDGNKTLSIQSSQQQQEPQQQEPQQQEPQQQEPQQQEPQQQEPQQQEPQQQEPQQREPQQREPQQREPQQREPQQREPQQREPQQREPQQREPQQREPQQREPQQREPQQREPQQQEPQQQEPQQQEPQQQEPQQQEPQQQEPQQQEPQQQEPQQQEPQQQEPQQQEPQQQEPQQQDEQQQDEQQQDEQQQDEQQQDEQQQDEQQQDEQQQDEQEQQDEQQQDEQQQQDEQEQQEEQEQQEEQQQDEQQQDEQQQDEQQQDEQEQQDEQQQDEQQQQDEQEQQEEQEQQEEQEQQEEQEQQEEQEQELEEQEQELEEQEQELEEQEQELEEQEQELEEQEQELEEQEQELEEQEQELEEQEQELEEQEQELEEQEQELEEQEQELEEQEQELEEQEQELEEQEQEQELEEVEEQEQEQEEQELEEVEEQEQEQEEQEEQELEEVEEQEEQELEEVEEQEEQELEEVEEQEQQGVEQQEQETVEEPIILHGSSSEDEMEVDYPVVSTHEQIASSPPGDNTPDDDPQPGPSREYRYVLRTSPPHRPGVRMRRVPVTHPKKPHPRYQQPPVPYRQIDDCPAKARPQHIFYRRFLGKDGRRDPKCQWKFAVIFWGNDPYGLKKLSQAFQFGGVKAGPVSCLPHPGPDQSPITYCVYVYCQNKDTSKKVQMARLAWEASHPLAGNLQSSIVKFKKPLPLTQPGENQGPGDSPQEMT
HNF4A DNA FP – change in binding of human HNF4 alpha to DNA; P41235; HNF4a-FITC DNA binding, fluorescence polarization, 1 h; activity change, % at 10 µM; actives 0.3% (n = 360,000); in the data active = activity change above about 30%, passing the limit was not always enough;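 also: controls were the assay level and a saturating level of protein; the project sought stronger binding though the title names inhibitors; some compounds called inactive have numbers as strong as hits; positive values seem to mean higher polarization but the record does not say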
ALR H2O2 inh – blocks human ALR sulfhydryl oxidase activity; inhibition, % (no concentration beside the values); P55789; purified ALR, DTT oxidation, H2O2 HRP-luminol luminescence; actives 3.8% (n = 290,000);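 active = mean and each replicate at 75% or more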;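 also: stock transfer was 7.5 nL into about 7.5 µL; 0% = neutral wells and 100% = wells with inactivated enzyme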
UCH37 DUB inh – blocks the human deubiquitinase UCH37; Q9Y5K5; purified proteasome/UCH37, Ub-AMC cleavage fluorescence; inhibition, % (concentration not given with the values); actives 0.33% (n = 330,000); AID 588478;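 active = mean of two replicates above 20%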;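 also: 0% = compound-free wells with enzyme and 100% = wells lacking proteasome; stock transfer was 100 nL into about 20 µL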
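Material: human UCH37 enzyme supplied as purified proteasome complex / Amount: 0.15 nM proteasome as dispensed / Buffer or medium: pH 7.4 Tris-HCl (50 mM) with ovalbumin, ATP-MgCl2, DTT / Times: preincubation 30 min, reaction 25 min, room temperature / Technique: AMC fluorescence from Ub-AMC cleavage, excitation 355 nm, emission 460 nm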
FGF22 binding – binders of recombinant human FGF22 by thermal shift; calls only at 9.99 µM; AID 651658; actives 1.5% (n = 340,000); SYPRO orange fluorescence; percent of sucrose octasulfate shift, DMSO zero; Q9HCT0;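 active = melting point raised past a set limit in the mean and every replicate; three in four hits are not shown here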
* marks the source's active call; other numbers are inactive results; i = inactive; . = no result given. Not all compounds are listed (hit frequency here may not be typical).

SMILES	Beta2AR agonist	Ecoli growth	LANA-H2B inh	HNF4A DNA FP	ALR H2O2 inh	UCH37 DUB inh	FGF22 binding
COC(=O)N[C@@H]1C[C@H]2[C@@H]3CC[C@H]4C[C@@H](OC)CC[C@]4(C)[C@H]3CC[C@]12C	0	.	1.7	-0.8	2	2.6	i
COc1ccccc1C(=O)NC1CCSc2ccccc21 (stereo unspecified)	-1	0.71	-10	1.9	-13	5.2	i
CN1CCN(c2ccc(C(CC(N)=O)NC(=O)Cc3ccc(Br)cc3)cc2[N+](=O)[O-])CC1 (stereo unspecified)	5	0.62	-1.5	3.4	2	4.0	i
CSc1ncc(Cl)c(C(=O)Nc2ccccc2Cl)n1	-5	0.66	.	0.1	.	-7.8	.
CN(C)S(=O)(=O)c1ccc(Nc2nc(C3CC3)nc3c2nnn3Cc2ccccc2Cl)cc1	2	0.66	-3.1	-1.1	-4	-65	.
Cc1cc(N2CCN(C(=O)c3ccco3)CC2)n2nc(C)c(-c3ccccc3)c2n1	2	0.7	.	-3.5	.	-178	.
COCCN(CC(=O)Nc1cccc(C)c1C)C(=O)c1cc(-c2cccs2)nn1-c1ccccc1	0	0.68	6.3	-0.8	.	1.7	i
COc1ccc(C(=O)N2CCN(c3cccc(C)c3C)CC2)cc1S(=O)(=O)NC1CC1	3	0.68	.	-5.1	.	0.3	i
COc1ccc(C(=O)C[n+]2ccc(N)c(C)c2C)cc1	11	0.69	-3.7	4.0	-6	1.8	i
COC(=O)c1cc(-c2ccc(OC)cc2)nc2nc(SC)[nH]c(=O)c12	-8	0.68	6.7	1.5	-6	-162	i
COc1ccccc1OCCNC(=O)CCNC(=O)c1ccccc1OC	-4	0.68	.	1.2	-3	3.5	i
CC(=O)Oc1ccc(-c2csc(Nc3ccc(S(N)(=O)=O)cc3)n2)cc1	11	0.69	2.2	-0.6	28	4.9	i
CCCCn1c(SCC(=O)Nc2cc(C(F)(F)F)cc(C(F)(F)F)c2)nnc1C(CC)N(C)C (stereo unspecified)	8	0.65	2.3	2.4	5	2.8	i
O=S(=O)([O-])CCC[N+]1(CC#Cc2ccccc2)CCCCC1	0	0.66	-4.6	2.2	-4	3.3	.
Cc1cc(OCC(=O)NCC2CCC(C(=O)O)CC2)c2c(C)cc(=O)oc2c1 (stereo unspecified)	8	0.76	0.9	1.9	-16	-105	i
CN1CCC(N(C)C(=O)c2ccc(Cl)c(S(=O)(=O)N(C)c3ccc(Cl)cc3)c2)CC1	7	0.72	-0.4	3.4	-2	1.5	i
O=C(CSc1cn[nH]n1)Nc1nc2ccccc2s1	10	0.64	-5.4	-0.6	15	-2.3	i
CC(=O)c1cc(-c2ccccc2)n(CC(=O)NC2CCCC2)c1C	4	0.73	4.9	2.3	-2	4.9	.
CC1(C)CC(=O)N(c2ccccc2)C1(C)O (stereo unspecified)	2	0.67	2.3	0.9	-6	4.7	.
CCCc1cc(=O)[nH]c(SCC(=O)NC)n1	-6	0.73	-1.2	-0.2	-6	0.0	.

Five compounds already listed, arranged by formula weight, smallest number first.
SMILES	Beta2AR agonist	Ecoli growth	LANA-H2B inh	HNF4A DNA FP	ALR H2O2 inh	UCH37 DUB inh	FGF22 binding
COc1ccc(C(=O)C[n+]2ccc(N)c(C)c2C)cc1	11	0.69	-3.7	4.0	-6	1.8	i
COc1ccccc1OCCNC(=O)CCNC(=O)c1ccccc1OC	-4	0.68	.	1.2	-3	3.5	i
Cc1cc(OCC(=O)NCC2CCC(C(=O)O)CC2)c2c(C)cc(=O)oc2c1 (stereo unspecified)	8	0.76	0.9	1.9	-16	-105	i
Cc1cc(N2CCN(C(=O)c3ccco3)CC2)n2nc(C)c(-c3ccccc3)c2n1	2	0.7	.	-3.5	.	-178	.
COCCN(CC(=O)Nc1cccc(C)c1C)C(=O)c1cc(-c2cccs2)nn1-c1ccccc1	0	0.68	6.3	-0.8	.	1.7	i

Next records.
SMILES	Beta2AR agonist	Ecoli growth	LANA-H2B inh	HNF4A DNA FP	ALR H2O2 inh	UCH37 DUB inh	FGF22 binding
COc1ccc(N2C(=O)C3NN=C(C(=O)OCc4ccccc4)C3C2=O)cc1 (stereo unspecified)	-7	0.72	2.1	0.3	12	2.4	i
CC(=C/c1ccccc1)/C=N/n1cnnc1	-14	.	-1.1	-2.2	-4	.	.
C=C1CSc2nc(=O)c3c4c(sc3n21)CCCC4	-12	0.7	-0.9	-0.4	70	-4.4	.
CCc1ccc(C2=C/C(=C/c3cccnc3)C(=O)O2)cc1	-2	0.72	0.3	2.0	63	-13	i
COc1ccc(-n2cc(CNCCCn3ccnc3)c(-c3cccc(F)c3)n2)cc1	16	0.62	-1.8	0.8	-1	3.9	i
COc1ccc(-c2c(-c3cc(OC)cc(OC)c3)n(C)c3ccc(-c4cc(F)cc(OC)c4)cc23)cc1	6	0.76	-3.4	-3.0	-3	-80	i
CC(C)CCNC(=O)c1c[nH]c2ccc(S(=O)(=O)N3CCC4(CC3)OCCO4)cc2c1=O	-13	0.71	8.9	4.0	0	3.4	.
Cc1ccc(N2C(=O)/C(=C/c3cccnc3)SC2=S)cc1	18	0.73	-3.4	1.4	-4	3.2	i
CN(C(=O)c1ccc(NC(=O)Cc2cccc(NC(=O)C3CCN(C(=O)CCc4ccccc4)CC3)c2)cc1)C1CCCC1	8	0.67	-1.9	-4.1	-5	1.8	i
COc1ccc(COc2ncnc3ccc(Br)cc23)cc1F	-13	0.64	-2.9	0.9	-9	-0.1	i
CCc1nnc(NC(=O)c2c(-c3ccccc3)noc2C)s1	8	0.7	-3.3	-2.4	12	1.9	i
CC(/C=C/c1ccccc1)=N\NC(=O)c1ccc2c(c1)OCCO2	5	.	-4.2	-0.9	3	.	.
CC(C)[C@H](NC(=O)[C@@H]1Cc2ccccc2CN1)C(=O)NC1CCCCC1	4	0.69	1.2	2.3	3	4.2	i
Cc1oc(C(C)(C)C)cc1C(=O)N1CCN(c2ccc(C(F)(F)F)cn2)CC1	-5	0.68	-0.7	-5.0	10	1.3	i
O=CN1CCN(S(=O)(=O)c2ccc(Cl)c(C(=O)O)c2)CC1	0	0.69	2.4	2.3	1	0.6	i
O=S(=O)(NCCc1ccccc1)c1cccc2nsnc12	4	0.6	-1.3	1.3	0	1.4	i
O=S(=O)(CCc1ccccc1)/N=C/c1cccs1	0	.	-0.7	-1.5	-14	.	.
CCOC(=O)CC(=O)CSc1nc2cc(C)ccc2cc1C	-6	0.7	-2.7	-1.2	1	7.6	.
CC(C)c1ccc(C(=O)NCCCc2ccccc2)cc1	-11	0.66	3.0	-1.9	-5	4.3	.
COc1ccc(-c2nn(CCC(=O)O)cc2/C=C2\SC(N)=NC2=O)cc1	-6	0.69	3.5	8.3	.	19	i
Cc1ccccc1NC1C=CS(=O)(=O)C1 (stereo unspecified)	2	0.73	-2.3	-0.1	40	-1.2	.
CCCN1Cc2cccc(C(=O)NCc3ccccc3)c2C1=O	-9	0.66	1.5	-1.1	11	1.2	.
O=C(NCCc1ccccc1)c1cccc(Br)c1	-8	0.67	-2.4	-0.5	-2	5.7	i
S=C(NCc1ccc(Cl)c(Cl)c1)Nc1ccc2c(c1)OCO2	-5	0.62	5.9	8.1	-1	1.3	i
Cc1nccc(-c2sc(-c3cccs3)nc2C)n1	-24	0.68	2.3	8.8	85*	i	i
CC(C)C(c1nnnn1C1CCCC1)N1CCN(c2ccccc2F)CC1 (stereo unspecified)	9	0.76	-0.9	1.0	-2	1.0	.
CC12CCC(=O)N1C(C(=O)Nc1cc(C(F)(F)F)ccc1N1CCCCC1)CS2 (stereo unspecified)	7	0.66	-2.9	-1.5	.	1.5	i
CCOC(=O)CCSCC(=O)N1N=C(c2cccs2)CC1c1ccc(C)cc1 (stereo unspecified)	3	0.72	-0.6	1.1	-4	-8.2	i
CN(C)CCOc1ccccc1C(C)(C)C	5	0.65	2.9	1.5	0	3.5	.
COc1ccc(C(=O)C2CCN(CC(=O)Nc3cc(C)cc(C)c3)CC2)cc1	-3	0.62	-2.0	-1.4	-2	0.8	i
CCc1noc(C)c1C(=O)Nc1nc(-c2cc(OC)ccc2OC)cs1	11	0.64	1.5	-1.0	34	-1.9	i
CC(C(=O)Nc1ncn[nH]1)N1C(=O)c2ccccc2C1=O (stereo unspecified)	3	0.74	17*	-1.2	0	-3.5	.
O=C(NCc1cccnc1)c1ccc(Cn2c(=S)[nH]c3ccc(Br)cc3c2=O)cc1	10	0.72	0.8	6.9	0	3.1	i
Cc1ccc(SCC(=O)Nc2nnc(C(C)(C)C)s2)cc1	9	0.7	-1.2	-2.6	-1	3.0	i
COc1ccc(-c2ccc3c(c2)S(=O)(=O)c2cccc(C(=O)O)c2C3=O)cc1OC	15	0.66	0.5	-1.2	-7	1.3	i
CC(C)c1nnc(NC(=O)CCC(=O)N2CCN(C3c4ccccc4-c4ccccc43)CC2)s1	-10	0.73	3.4	3.2	-6	1.6	i
Cc1[nH]c2ccccc2c1C(C[N+](=O)[O-])c1cccs1 (stereo unspecified)	-1	0.71	5.8	1.3	59	-0.2	i
Cc1nc(N2CCN(C)CC2)c2c(C)c(C(=O)Nc3ccc(F)cc3)sc2n1	-5	0.76	-1.4	-0.1	-14	-1.2	.
COc1cc(NC(=O)C(C)Oc2ccccc2)c(C(=O)O)cc1OC (stereo unspecified)	0	0.73	-0.3	5.7	.	4.4	.
Cc1cc(Cl)c2oc(C(=O)N3CCN(C(=O)c4ccco4)CC3)c(C)c2c1	-4	0.67	-4.1	2.8	0	6.7	i
CCOC(=O)C(NCCc1ccccc1F)(NC(C)=O)C(F)(F)F (stereo unspecified)	1	0.67	1.9	-1.5	20	6.4	i
CCc1nnc(NC(=O)Cc2cc(OC)c(OC)c(OC)c2)s1	-4	0.64	0.2	2.4	-2	-1.5	i
COc1ncnc(OC)c1NC(=O)c1ccc(F)cc1	-4	0.77	5.0	1.7	-12	2.5	.
O=C(OCc1ccccc1)c1cccc(-c2nnn(Cc3ccccc3)n2)c1	-6	0.7	1.2	1.7	0	4.2	.
COc1cc(OC)cc(C(=O)OCC(=O)NCc2ccco2)c1	7	0.66	5.0	-1.1	-11	1.1	i
COc1ccccc1NC(=O)COc1ccc(/C=N/NC(=O)CSCc2cc(C)cc(C)c2)cc1	2	.	3.5	2.5	-3	.	.
CCC(CC)C(=O)Nc1nnc(SCC(=O)NC2CCCCC2)s1	2	0.68	-4.0	2.9	-13	2.5	i
O=C(CSc1ccc(-c2cccc([N+](=O)[O-])c2)nn1)NC1CCCC1	4	0.73	3.0	-1.2	.	4.1	i
COC(=O)c1cc(S(=O)(=O)N2CCCC(C)C2)cn1C (stereo unspecified)	14	0.68	2.9	-1.5	-4	0.1	i
C=CCc1cccc(/C=N/n2c(C)nnc2C)c1O	0	.	-6.9	-0.1	13	.	.
Later entries:
SMILES	Beta2AR agonist	Ecoli growth	LANA-H2B inh	HNF4A DNA FP	ALR H2O2 inh	UCH37 DUB inh	FGF22 binding
O=C(CCC1CCCC1)Nc1ccon1	2	0.77	1.6	3.1	8	3.6	.
CCCCn1c(CN2CCN(c3cccc(Cl)c3)CC2)nc2c1c(=O)n(C)c(=O)n2C	6	0.7	-4.6	2.8	-3	4.6	.
COc1ccc(S(=O)(=O)N(CC(=O)N2CCN(C)CC2)c2ccc(C)cc2)cc1OC	2	0.67	-2.8	-2.3	-1	0.6	.
COc1ccc(CNC(=O)c2cc(S(=O)(=O)N3CCCC3)cn2C)cc1	2	0.72	2.0	1.0	4	2.1	i
CCn1c(CSc2nc3ccccc3s2)nnc1SCC(=O)c1ccc(O)cc1O	3	0.67	3.1	5.2	-6	4.3	.
O=C(Cn1cnc2c(OCc3ccccc3)ncnc21)NCc1ccccn1	-7	0.68	.	1.1	.	3.7	i
CC(C)(C)C(=O)CSc1nnc(-c2cccs2)n1CC1CCCO1 (stereo unspecified)	-3	0.71	-0.7	1.7	.	-0.7	.
O=C(CNC(=O)c1ccc(Br)o1)NNC(=O)c1ccc(Cl)cc1	12	0.64	-4.6	-1.5	4	4.5	i
CCOC(=O)c1ccc(NC(=O)CSc2nnc(C3CC3)n2C)cc1	-19	0.72	2.2	-0.7	8	2.7	.
C=CCN(c1ccccc1C(=O)NCC(=O)OCC)S(=O)(=O)c1ccc(C)cc1	17	0.67	2.0	4.6	-27	4.5	i
